nsP2pro inh = inhibitors of chikungunya virus nsP2 protease. FRET peptide cleavage, nsP2pro, fluorescence 1 h. Potency, µM (highest dose often 24.9 µM), inactives show at the top dose activity change, negative = inhibition, actives largely listed as inhibitors. 31,000 compounds, 1.1% hits; active means well fitted inhibition curve with a large enough effect; inconclusive means small, poorly fitted or top-dose-only effect; inactive means no such curve, though single readings can be large or run the other way; note: nearly all actives have a fitted effect of over 60% in size; a reference inhibitor and vehicle were the controls
Target sequence (Q8JUX6 whole entry, looked up): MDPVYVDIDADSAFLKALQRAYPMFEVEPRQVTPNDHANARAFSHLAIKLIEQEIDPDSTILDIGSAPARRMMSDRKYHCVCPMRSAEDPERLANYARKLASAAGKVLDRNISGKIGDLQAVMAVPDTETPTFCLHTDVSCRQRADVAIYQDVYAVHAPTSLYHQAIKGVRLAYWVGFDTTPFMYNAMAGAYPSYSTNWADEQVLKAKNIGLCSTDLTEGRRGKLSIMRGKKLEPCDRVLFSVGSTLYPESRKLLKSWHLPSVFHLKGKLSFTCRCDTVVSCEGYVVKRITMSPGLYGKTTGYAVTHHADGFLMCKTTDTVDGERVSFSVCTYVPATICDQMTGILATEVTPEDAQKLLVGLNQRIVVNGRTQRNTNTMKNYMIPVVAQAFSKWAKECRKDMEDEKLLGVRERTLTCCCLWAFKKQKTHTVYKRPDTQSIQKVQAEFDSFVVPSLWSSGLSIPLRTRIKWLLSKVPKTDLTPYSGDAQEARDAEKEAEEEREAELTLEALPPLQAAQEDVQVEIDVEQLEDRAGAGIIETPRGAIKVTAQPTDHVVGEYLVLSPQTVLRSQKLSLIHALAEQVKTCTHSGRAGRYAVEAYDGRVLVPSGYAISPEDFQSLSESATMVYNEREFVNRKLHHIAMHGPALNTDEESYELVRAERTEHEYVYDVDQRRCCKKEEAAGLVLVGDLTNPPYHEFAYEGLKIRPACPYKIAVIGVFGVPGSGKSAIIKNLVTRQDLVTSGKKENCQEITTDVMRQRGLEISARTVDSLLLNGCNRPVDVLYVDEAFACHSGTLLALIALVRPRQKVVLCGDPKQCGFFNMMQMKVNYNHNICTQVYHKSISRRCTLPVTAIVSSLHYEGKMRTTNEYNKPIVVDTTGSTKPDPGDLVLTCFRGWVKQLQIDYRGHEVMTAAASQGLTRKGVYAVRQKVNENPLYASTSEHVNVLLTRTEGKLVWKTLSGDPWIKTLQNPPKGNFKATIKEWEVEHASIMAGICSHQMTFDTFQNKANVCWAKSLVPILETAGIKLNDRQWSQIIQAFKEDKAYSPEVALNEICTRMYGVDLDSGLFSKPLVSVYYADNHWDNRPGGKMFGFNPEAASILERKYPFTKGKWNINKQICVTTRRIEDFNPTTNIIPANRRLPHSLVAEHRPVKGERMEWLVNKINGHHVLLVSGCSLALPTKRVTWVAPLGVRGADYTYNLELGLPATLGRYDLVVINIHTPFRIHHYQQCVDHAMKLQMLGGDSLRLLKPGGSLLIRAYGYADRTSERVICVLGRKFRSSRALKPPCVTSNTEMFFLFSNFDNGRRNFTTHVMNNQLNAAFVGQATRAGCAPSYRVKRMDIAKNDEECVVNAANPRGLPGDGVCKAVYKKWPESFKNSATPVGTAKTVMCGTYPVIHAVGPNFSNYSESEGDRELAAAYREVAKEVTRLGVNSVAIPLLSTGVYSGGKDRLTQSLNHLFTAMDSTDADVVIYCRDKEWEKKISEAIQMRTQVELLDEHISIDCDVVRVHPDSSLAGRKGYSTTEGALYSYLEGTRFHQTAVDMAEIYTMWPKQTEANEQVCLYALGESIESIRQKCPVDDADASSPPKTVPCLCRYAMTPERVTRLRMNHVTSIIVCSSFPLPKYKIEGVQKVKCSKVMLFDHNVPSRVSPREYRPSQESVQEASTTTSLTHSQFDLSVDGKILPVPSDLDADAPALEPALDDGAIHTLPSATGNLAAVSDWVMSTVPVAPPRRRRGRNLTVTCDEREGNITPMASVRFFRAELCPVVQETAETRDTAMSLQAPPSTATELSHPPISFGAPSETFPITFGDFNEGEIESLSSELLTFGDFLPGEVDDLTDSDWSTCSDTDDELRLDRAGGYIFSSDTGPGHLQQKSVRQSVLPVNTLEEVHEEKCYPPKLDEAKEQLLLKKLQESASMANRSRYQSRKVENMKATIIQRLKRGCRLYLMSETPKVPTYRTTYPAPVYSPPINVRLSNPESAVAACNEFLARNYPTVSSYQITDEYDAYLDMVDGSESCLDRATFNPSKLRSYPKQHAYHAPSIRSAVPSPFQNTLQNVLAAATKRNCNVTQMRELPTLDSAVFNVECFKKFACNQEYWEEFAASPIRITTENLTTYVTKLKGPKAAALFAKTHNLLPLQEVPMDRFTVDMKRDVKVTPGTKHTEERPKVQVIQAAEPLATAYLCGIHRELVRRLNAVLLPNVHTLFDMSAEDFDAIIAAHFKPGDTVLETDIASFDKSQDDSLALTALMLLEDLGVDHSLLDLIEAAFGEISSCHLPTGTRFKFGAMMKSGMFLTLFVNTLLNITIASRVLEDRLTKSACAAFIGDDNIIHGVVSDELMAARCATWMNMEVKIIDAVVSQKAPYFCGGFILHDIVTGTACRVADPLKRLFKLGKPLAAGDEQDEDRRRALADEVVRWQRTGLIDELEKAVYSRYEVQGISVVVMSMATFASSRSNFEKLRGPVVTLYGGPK
* = called active by the depositor; i = inactive; ? = inconclusive; & = joins results of further samples; [ ] = remark or other dose. % is set by controls: 0 for no effect and ±100 for the full control effect; potency is the fitted concentration of half-maximal effect. Some of the compounds tested; count on the stated rates, not on these rows.

SMILES	nsP2pro inh
Cc1ccc(S(=O)(=O)Nc2ccc(OC(F)(F)F)cc2C(=O)Nc2nc(-c3ccccc3)cs2)cc1	i
COc1nccc(N2CCC(CC(=O)N3CCN(C(C)=O)CC3)CC2)n1	-2%
Cc1occc(=O)c1O[C@@H]1O[C@H](COC(=O)CC(C)(O)CC(=O)O)[C@@H](O)[C@H](O)[C@H]1O (stereo partly drawn)	4%[10 µM]
COCC(=O)NC[C@H]1CCN(Cc2ccc(Br)o2)C[C@H]1N(C)C	?
O=C(NC[C@H](O)CN1CCc2ccccc2C1)c1ccnc(NC2CCC2)c1	-2%
CC(C)c1nn2c(=O)cc(COC(=O)c3cccc(NC(=O)c4ccccc4F)c3)nc2s1	1%
CCN(c1ccccc1)S(=O)(=O)c1ccc(NC(=O)c2nc(S(C)(=O)=O)ncc2Cl)cc1	?
COc1ccc(OC)c(CCNC(=O)c2c(C)oc3ncn(CC(C)C)c(=O)c23)c1	-9%
COCCNC(=O)C(NC(=O)c1ccccc1)C1CCN(C(=O)C2CC2)CC1 (stereo not drawn)	0%
Cc1cn([C@H]2C=C[C@@H](CO)O2)c(=O)[nH]c1=O	-7%&-10%
CCN(CC)CCNC(=O)c1c(C)oc2ncn(C)c(=O)c12	-14%
O=C(/C=C/c1ccccc1)Nc1cccc(S(=O)(=O)Nc2ccccc2F)c1	4%
CCOc1nc2cccc(C(=O)O)c2n1Cc1ccc(-c2ccccc2-c2nn[nH]n2)cc1	-9%
COc1ccc(NC(=O)Cn2c(=O)n(Cc3ccco3)c(=O)c3sc4ccccc4c32)cc1Cl	17%
CC1CCN(S(=O)(=O)c2ccc3[nH]ccc3c2)CC1	-6%
CC(=O)Nc1ccc(S(=O)(=O)NC2(C(F)(F)F)NC(=O)N(CCc3ccc(F)cc3)C2=O)cc1 (stereo not drawn)	-17%
Cc1cc(Cl)ccc1OCCCC(=O)NO	3%&0%
COc1cc(/C=C/C=O)cc(OC)c1O[C@@H]1O[C@H](CO)[C@@H](O)[C@H](O)[C@H]1O	1%
CN(CCc1ccccn1)[C@H]1[C@@H]2OC[C@@H](O2)[C@@H](NC(=O)Nc2ccc(F)cc2)[C@@H]1O	-4%[39.2 µM]
COC(=O)c1ccccc1NC(=O)c1noc2c1CSc1ccccc1-2	-3%
COc1cc(O)cc2c1C(=O)OC(C)C2 (stereo not drawn)	?
Cc1ccc(Cl)cc1NC(=O)c1oc2ccc(S(=O)(=O)N(C)C3CCCCC3)cc2c1C	-26%
Cc1cccn2c(CC(=O)N3CCn4nc(CO)cc4C3)cnc12	i
CCOC(=O)c1cccc(NC(=O)CCn2nc(C)c3c(C)n(-c4ccccc4)nc3c2=O)c1	-13%
O=C(O)c1cccc(C(=O)CCC2OC(n3cnc4c(=O)[nH]cnc43)C(O)C2O)c1 (stereo not drawn)	7%[10 µM]
Nc1ncnc2c1ncn2[C@@H]1O[C@H](CO)C[C@H]1O	-10%&-2%
CCOc1ccc2c(n1)CCNC2	2%
O=C(Nc1cccc(Cl)c1)C1CCCN(c2nn3cc(-c4ccc(F)cc4)nc3s2)C1 (stereo not drawn)	-7%
O=C(c1ccc2c(c1)N(Cc1cccc(Cl)c1)C(=O)c1ccccc1S2(=O)=O)N1CCN(c2cccc(C(F)(F)F)c2)CC1	-14%
CC(=O)Nc1ccc(S(=O)(=O)N2CCN(c3ccc(C(C)=O)cc3)CC2)cc1	1%
COc1ccc(CNC(=O)c2cc3cccc4c3n2CC(C)S4)c(OC)c1 (stereo not drawn)	-17%
CCCCN(CC)CCNC(=O)Cn1c(=O)c2cccn2c2cccnc21	-27%
Nc1ncnc2c1C(=O)N(c1ccc(C3CCC(CC(=O)O)CC3)cc1)CCO2 (stereo not drawn)	?
NC(=O)CSc1nc2ccc(NC(=O)COc3ccccc3)cc2s1	-12%
O=C(NCCCc1ccccc1)C1CCCCN1Cc1ccc(-c2ccsc2)cc1 (stereo not drawn)	i
CCOC(=O)c1cccc(NC(=O)Cn2cnc3nc4c(cc3c2=O)CCCC4)c1	-27%
CC1CCC2(NC1)OC1CC3C4CC=C5CC(O[C@@H]6O[C@H](CO)[C@@H](O[C@@H]7O[C@@H](C)[C@H](O)[C@@H](O)[C@H]7O)[C@H](O)[C@H]6O[C@@H]6O[C@@H](C)[C@H](O)[C@@H](O)[C@H]6O)CCC5(C)C4CCC3(C)C1C2C (stereo partly drawn)	-8%[5.1 µM]
Cc1c(/C=C(\C#N)C(=O)Nc2cccc(Cl)c2)c2ccccc2n1Cc1ccccc1Cl	-12%
Cc1cc(C)n(Cc2ccc(C(=O)N3CCC(N4C[C@H](O)C[C@H]4C(=O)NC4CCCCC4)CC3)o2)n1	?
O=C1CCCc2cc(S(=O)(=O)Nc3cnccc3C(=O)Nc3nc(-c4ccccc4)cs3)ccc2N1	i
C=C1C(=O)O[C@H]2CC(=C)[C@H]3CC[C@@](C)(O)[C@@H]3CC12 (stereo partly drawn)	39%[activator]
COc1cccc(N2CC(NC(=O)CCCc3ccccc3)CC2=O)c1 (stereo not drawn)	-10%
COC1CC(O[C@H]2CC[C@]3(C=O)C4CC[C@]5(C)[C@@H](C6=CC(=O)OC6)CC[C@]5(O)[C@@H]4CC[C@@H]3C2)OC(C)C1O[C@@H]1O[C@H](CO)[C@@H](O[C@@H]2O[C@H](CO)[C@@H](O)[C@H](O)[C@H]2O)[C@H](O)[C@H]1O (stereo partly drawn)	?
C[C@H](CCC(=O)O)[C@H]1CC[C@H]2[C@@H]3CC[C@@H]4C[C@H](O)CC[C@]4(C)[C@@H]3C[C@H](O)[C@]12C	14%
O=C(OC[C@@]1(O)CO[C@@H](O[C@H]2[C@H](Oc3ccc(O)cc3)O[C@H](CO)[C@@H](O)[C@@H]2O)[C@@H]1O)c1ccc(O)cc1	51%[activator][10 µM]
CC(=O)N1CCCC1c1nc2ccccc2n1Cc1cc(C)ccc1C (stereo not drawn)	-26%
O=C(NCCc1csc(-c2cccnc2)n1)c1cccc(Cl)c1	-8%
C[C@@H](O)c1ccc(-c2ccc3ncnc(NCc4cccs4)c3c2)o1	0%
O=C(Nc1ccc(S(=O)(=O)Nc2nccs2)cc1)[C@@H]1CC[C@H](C(=O)c2ccccc2)C1	i
Cc1ccc(Cl)cc1N1CCN(C(=O)c2ccc3c(c2)N(Cc2ccc(F)cc2)CCS3)CC1	9%
COc1cccc(C2=Nn3c(nnc3-c3ccccc3C)SC2)c1	i
O=S(=O)(NCC1CCC(NS(=O)(=O)c2c(F)cccc2F)CC1)c1ccc2c(c1)OCCO2 (stereo not drawn)	-15%
CC(C)c1nn2c(=O)cc(COC(=O)CNC(=O)c3ccccc3Cl)nc2s1	-18%
CCOc1ccc(CN(C(=O)c2nc(SC)ncc2Cl)C2CCS(=O)(=O)C2)cc1 (stereo not drawn)	6%
CCc1ccc(C2CC(=O)c3c([nH]c(C(=O)OC4CCCC4)c3C)C2)cc1 (stereo not drawn)	-10%
Cc1c(C(=O)NCC2CCCO2)[nH]c2c1C(=O)CC(c1ccco1)C2 (stereo not drawn)	-22%
Cc1ccc(-c2nn3c(C)nnc3s2)cc1NCc1ccc(-c2cccc(Cl)c2)o1	?
COC1CC(O[C@H]2CC[C@@]3(C)C(CCC4C3CC[C@]3(C)C(C5=CC(=O)OC5)CCC43O)C2)OC(C)C1OC1OC(COC2OC(CO)C(O)C(O)C2O)C(O)C(O)C1O (stereo partly drawn)	35%[5.1 µM]
Cc1ccc(-n2ncc3c(NCCCN(C)C)ncnc32)cc1Cl	19%
NC[C@@H]1O[C@H](O[C@H]2[C@@H](O)[C@H](O[C@@H]3[C@@H](O)[C@H](N)C[C@H](N)[C@H]3O[C@H]3O[C@H](CO)[C@@H](O)[C@H](O)[C@H]3N)O[C@@H]2CO)[C@H](N)[C@@H](O)[C@@H]1O	14%[0.199 µM]

Next structures follow.
SMILES	nsP2pro inh
CCc1nc2nc(C)cc(Nc3ccc(Br)cc3F)n2n1	-23%
Cc1ccc(S(=O)(=O)Nc2cc(Cl)ccc2C(=O)Nc2nc(-c3ccccc3)cs2)cc1	i
C[C@H]1CC[C@@H]2N(C1)C[C@@H]1[C@H]([C@@H](O)[C@H](O)[C@]3(O)[C@H]1C[C@@]14OC5(O)[C@@H](C[C@@H](O)[C@@H]31)[C@]4(C)CC[C@@H]5O)[C@]2(C)O	9%[10 µM]
COc1ccc(C(=O)NC[C@H]2Cn3ccnc3CO2)cc1	i
CC(=O)c1cc2c(s1)c1cnn(Cc3ccccc3F)c(=O)c1n2C	-3%
C[C@]12Cc3nonc3C[C@@H]1CC[C@@H]1[C@@H]2CC[C@@]2(C)[C@H]1CC[C@]2(C)O	-3%
CC(N)Cc1ccc(O)cc1 (stereo not drawn)	-7%
COCCOCC1(CNC(=O)C2CCOCC2)C[C@@H](O)[C@@H](O)C1 (stereo partly drawn)	-12%[39.2 µM]
O=C1NC(=O)/C(=C/c2cccn2-c2ccc(P(O)O)cc2)N1	-8%
O=C(COc1ccccc1CNc1ccccc1)Nc1ccc(F)cc1	-49%
COC(=O)[C@H](Cc1ccc(O[S+](=O)([O-])c2cccc3cnccc23)cc1)N(C)[S+](=O)([O-])c1ccc2cnccc2c1	-1%
O=C1CCN(C(=O)Cc2cccc(F)c2)CCCCCCN1	i
Brc1ccc2nc(SCCOc3ccccc3)[nH]c2c1	-19%
COc1ccc(-c2nnc3n2N=C(c2ccc(OC)c(OC)c2)CS3)cc1	i
COCC1CN(C)CC12CCN(C1CCOCC1)CC2 (stereo not drawn)	-14%
CCn1cc(C(=O)NCc2ccccc2)c(=O)c2cc(S(=O)(=O)N3CCc4ccccc4C3)ccc21	3%
O=C(Cc1ccc(-c2ccccc2)cc1)NCCS(=O)(=O)N1CCN(c2cccc(Cl)c2)CC1	-15%
CCCOc1ccc(CNC(=O)Cn2cc3c(n2)-c2c(oc(C(=O)N4CCOCC4)c2C)CC3)cc1	-20%
COC1CCN(CC2CCCCCN2C(=O)c2ccoc2)CC1 (stereo not drawn)	-2%
CC[C@@H](C)[C@@H]1OC2(C=C[C@H]1C)C[C@@H]1C[C@H](C/C=C(\C)[C@H](O[C@H]3C[C@H](OC)[C@H](O[C@H]4C[C@H](OC)[C@H](NC(C)=O)[C@H](C)O4)[C@H](C)O3)[C@H](C)/C=C/C=C3\CO[C@H]4[C@H](O)C(C)=C[C@@H](C(=O)O1)[C@@]34O)O2 (stereo partly drawn)	26%
O=C(/C=C/c1ccccc1)OC[C@H]1O[C@@H](OC(=O)c2cc(O)c(O)c(O)c2)[C@H](O)[C@@H](O)[C@@H]1O	132%[activator][10 µM]
